Screening results (PubChem BioAssay)
Sa ugtP lethal: growth inhibition of S. aureus ugtP deletion strain; S. aureus RN4220 ugtP deletion, OD600 growth, 16 h; some inactives read as strong as hits; hit rate 0.54% among 330,000; AID 1259309; growth inhibition, % (no concentration beside the values);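 active means z-score under -3 and OD600 up to 0.15 on both plates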;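 further: plate controls were untreated wells for no effect and antibiotic for full effect; wells of about 80 µL received 100 nL stock; the first replicate is given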
BJeLR viability: kills HRASV12-expressing BJeLR cells; BJeLR (HRASV12) viability, CellTiter-Glo ATP luminescence, 48 h; reference of the scale not given here; inhibition, % (test concentration not listed); hit rate 0.17% among 300,000; AID 1554;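 active means replicate mean above 50%; inconclusive means above 50% but judged a plate artefact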;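 further: 50 nL library stock added to about 25 µL; numbers are from one replicate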
PrP UTR inh: inhibition of PrP 5' UTR reporter expression. cell-based PrP 5' UTR mRNA reporter, plate reader. inhibition, % (concentration not given with the values). hit rate 0.35% among 340,000. AID 488862;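 active means every replicate at 50% or more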;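 further: 0 = median of the neutral control wells; tested in H4 reporter cells; numbers are from one replicate; inactives centre near -14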
Bead autofluor: flagged as autofluorescent in microsphere protease counterscreen | compound autofluorescence counterscreen, microsphere flow cytometry; hits give high values | fluorescence intensity (no concentration beside the values) | hit rate 3.1% among 360,000 | AID 624483;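 active means at least 3 SD above the mean of all compounds, about 16000 in these data; inconclusive means too few beads counted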;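 further: 100 nL of 1 mM stock went into each well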
Sa RN4220 lethal: S. aureus RN4220 growth inhibition | OD600, 16 h | inhibition, % (no concentration beside the values) | hit rate 0.33% among 330,000 | AID 1259311;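 active means z-score of -3 or lower and OD600 up to 0.18 on both plates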;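 further: plate controls were untreated cells for no effect and reference antibiotic for full effect; stock transfer was 100 nL into about 80 µL; one replicate is shown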
Mtb hypoxia rep: inhibitors of hypoxia-regulated fluorescent reporter in Mycobacterium tuberculosis; M. tuberculosis hypoxia-regulated fluorescent reporter, fluorescence; fluorescence inhibition, % (concentration not given with the values); hit rate 0.1% among 300,000;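 active means 35 to 45% if threefold the growth effect, above 45% if 1.5-fold the growth effect; inactive means the rest, general growth blockers included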;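 further: wells of about 50 µL received 100 nL stock; 0% = vehicle wells and 100% = reference inhibitor wells; whole bacteria with a GFP reporter of the hypoxia response; strong numbers were not always called active; many hits fall short of the cut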
Mtb hypoxia rep growth: second read-out of Mtb hypoxia rep, no call of its own (marks repeat the call); growth inhibition, %; measured here: M. tuberculosis growth (absorbance);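 0% = vehicle and 100% = reference antibiotic; read after six days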
Starred values were filed as active, the others as inactive; u = inconclusive; x = not tested or not shown.

Every second line gives: Sa ugtP lethal, BJeLR viability, PrP UTR inh, Bead autofluor, Sa RN4220 lethal, Mtb hypoxia rep, Mtb hypoxia rep growth
Cc1sc(NC(=O)c2ccccc2)c(C(=O)NCCN(C)C)c1C
  6, 7, -11, 4316, 3.0, -8, 0
Oc1ccccc1-c1nc(NCc2ccccc2)c2ccccc2n1
  4, 9, 6, 3098, -3.8, -3, 2
CC(C)CCOC(=O)C1C2C=CC3(CN(Cc4cccs4)C(=O)C13)O2 (stereo not drawn)
  1, -22, -2, 6160, 2.7, x, x
O=C(NC(Cc1ccccc1)C(=O)O)/C(=C\c1cccc([N+](=O)[O-])c1)NC(=O)c1ccco1 (stereo not drawn)
  2, -1, -12, 4052, -1.1, -3, 15
O=P(O)(O)c1ccccc1OCc1ccccc1
  6, 5, 8, 2724, 1.3, x, x
CCN(CC)C(=O)c1oc2ccc(S(=O)(=O)N3CC(C)CC(C)C3)cc2c1C (stereo not drawn)
  7, 21, -23, 3443, 5.4, 17, 9
COc1cccc(/C=C/C(=O)OCC(=O)c2ccc3c(c2)NC(=O)CO3)c1OC
  4, -15, -11, 4247, 8.5, 12, 6
CC1(C)CC(=O)C(C=NCCN2CCN(C(=S)Nc3ccc(F)cc3)CC2)=C(O)C1
  1, -12, -16, 16455*, 2.1, -5, 13
Cc1cc(C(=O)Nc2ccc(C(=O)O)cc2)c(C)o1
  8, 2, -5, 5582, -1.1, 0, 4
COc1ccc(S(=O)(=O)ON=C2CC(C)(C)N(C(C)=O)C(C)(C)C2)cc1
  1, 1, -37, 3097, 6.7, 16, 10
CCNC(=S)NN=C(C)c1ccc(Cl)s1
  0, x, x, x, 6.6, 9, 9
N#Cc1cccc(NC(=O)CN2C(=O)NC(Cc3ccccc3)C2=O)c1 (stereo not drawn)
  14, -6, -9, 4808, 7.3, -18, -6
C=CCNC(=S)NNC(=O)c1ccc(OC(C)C)cc1
  0, 10, -20, 9572, 3.1, -11, 13
O=S1(=O)N=C(N/N=C/C=C/c2ccccc2)c2ccccc21
  x, -15, -7, 2346, x, x, x
C=C(C)CNC(=S)Nc1cccc(S(=O)(=O)NC2=NCCC2)c1
  2, 6, -3, 3840, 4.0, -4, 12
O=C(Nc1nnc(C2CCCCC2)s1)c1cccs1
  1, -5, -38, 7496, -1.8, -4, 2
COc1ccc(CCC(=O)N(C)CC(=O)Nc2ccc(N3CCOCC3)cc2)cc1
  9, -1, -20, 4550, 1.5, 3, 4
O=[N+]([O-])c1ccc2nc(C(O)C(O)c3nc4ccc([N+](=O)[O-])cc4[nH]3)[nH]c2c1 (stereo not drawn)
  11, -3, -19, 3277, 4.3, 3, -3
Cc1cccc(NC(=O)CCC(=O)c2cccs2)n1
  -2, 3, -56, x, -0.3, -8, 0
Cc1cccc(-c2nnc(SCC#N)n2-c2ccccc2)c1
  3, -11, -18, 4472, 2.6, 4, 9
COc1cc(C(=O)NNC(=O)c2ccc(NC(C)=O)cc2)cc(OC)c1OC
  2, -3, -12, 3517, 0.4, 15, 3
CC(C)=C1SC(N2CCN(c3cccc(C(F)(F)F)c3)CC2)=NC1=O
  4, 0, -9, u, 5.9, 5, 3
Cc1cc(C)nc(SCCCNCc2c(F)cccc2Cl)n1
  -1, -7, -15, 3257, 2.5, 2, 0
CCCN1C(=O)/C(=C\C=C2\N(CC)c3ccccc3C2(C)C)SC1=S
  -8, 11, -17, 10834, -2.5, x, x
CCOc1ccc(NS(=O)(=O)c2ccc(NS(C)(=O)=O)cc2)cc1
  22, 0, 1, x, -0.8, -4, 9
CCN(CC)C(=O)Cn1cc(S(=O)(=O)CC(=O)NCCc2ccc(OC)c(OC)c2)c2ccccc21
  3, 4, -14, 5936, 0.5, 5, 14
NS(=O)(=O)c1cccc(NC(=O)CCN2C(=O)C3CCCCC3C2=O)c1 (stereo not drawn)
  1, x, -15, 3844, -2.3, 3, 4
CC(=O)Oc1c(C)c(=O)n(C)c2ccccc12
  -1, 6, -18, 7304, 0.2, -3, 9
CCOC(=O)C1CCCN(S(=O)(=O)c2ccc3c(c2)NC(=O)CO3)C1 (stereo not drawn)
  0, 7, -8, 5833, 1.0, 7, 5
CC(=O)C1=C(C)Nc2ncnn2C1c1ccc(O)cc1 (stereo not drawn)
  -3, 5, -51, 4072, 1.7, 3, -3
COC(=O)Cn1c2ccc(C)cc2c2nc(C)sc21
  -4, 13, -20, 8244, 3.6, -1, 14
CSc1nc(-c2ccccc2)nc(N2CCN(C)CC2)c1C(C)=O
  25, 3, -18, 5355, -4.3, x, x
C=CCSc1nc2c(cnn2-c2ccccc2)c(=O)n1N
  10, 11, x, 5231, 4.1, 9, -7
Cc1ccccc1C1CC(=O)c2ccccc2C1C (stereo not drawn)
  20, x, 6, 2834, 4.7, 13, 3
COc1cc(=O)n2c(n1)SCCC2
  8, -5, -12, 4689, 20, x, x
O=C(Cn1c(=O)oc2ccccc21)NCC1COc2ccccc2O1 (stereo not drawn)
  9, -1, -26, 6120, 0.3, 15, -2
CC(C)(C)NC(=O)c1ccccc1NC(=O)c1ccc2c(c1)OCO2
  4, 18, -4, 3907, 12, 15, 11
Cc1c(C(=O)NC2CCCc3ccccc32)oc2ccc(S(=O)(=O)N3CCCCC3)cc12 (stereo not drawn)
  x, 5, -33, 10793, x, x, x
Cc1ccc(C(=O)COC(=O)CNC(=O)COc2ccccc2C)cc1C
  15, -4, -18, 10204, -0.9, 4, 0
CCCCCCCCN1C(=O)N(C)C(N(O)C(=O)NC)C1(C)C (stereo not drawn)
  -4, 4, -29, 4220, 3.4, x, x
CCCCCCCCC1=NCCc2c1[nH]c1ccccc21
  -9, 5, -19, 3377, 4.2, -6, 4
COc1ccc(C2=NN(C(=O)c3ccccc3)C(c3ccc(OC)c(OC)c3)C2)cc1OC (stereo not drawn)
  1, 9, -1, 2943, 1.7, -13, -1
CCOC(=O)c1c(C)oc2c1c(C(c1cccnc1)N1CCCCC1)c(O)c1ccccc12 (stereo not drawn)
  -5, -7, -76, 2682, -3.2, x, x
CC(=NNC(=O)c1ccc(-n2cnnn2)cc1)c1ccc(Cl)cc1
  4, x, x, x, 6.1, -7, -3
CN(C(=O)c1ccccn1)c1nnc(-c2ccccn2)s1
  4, -1, -68, 4150, 3.1, x, x
O=S(=O)(c1ccc(Cl)s1)N1CCN(Cc2ccccc2)CC1
  0, -1, 2, 2762, 3.0, x, x
CN=c1scc(-c2cccs2)n1N=Cc1ccc(O)c(O)c1O
  7, x, x, x, 9.3, 3, 9
Cc1ccc(/C=C2\CCC3=C2OC(N)=C(C#N)C3c2ccc(C)cc2)cc1 (stereo not drawn)
  x, -6, -33, 10272, x, x, x
CN(C)c1ccc(S(=O)(=O)N(C)C)cc1[N+](=O)[O-]
  1, 2, -26, 4110, 1.7, -5, 0
CC(C)[C@H](Nc1ncnc2c1oc1ccccc12)C(=O)O
  -1, -13, -11, 4505, 3.4, 1, -5
COc1ccc(CNC(=O)CN2C(=O)c3ccc([N+](=O)[O-])cc3C2=O)cc1
  3, -3, -12, 4132, 1.1, 8, 8
Cc1ccsc1/C=C1\CCc2ccccc2C1=O
  10, 2, -62, 7233, 13, 7, 4
COc1ccccc1C(=O)NCC(=O)NCc1cc(=O)n(C)c(=O)n1C
  -1, 0, -1, 5759, 2.5, 5, -2
Cc1nn(C)c(Oc2cccc(Cl)c2)c1C=O
  9, -1, -4, 4314, 3.1, 7, 3
COC(=O)C1(C)CC1(c1ccccc1)c1ccccc1 (stereo not drawn)
  0, -2, -2, 3708, 3.4, -12, 4
Cc1ccc(S(=O)(=O)N2CCCCC2CCNC(=O)C(=O)NCc2ccncc2)cc1 (stereo not drawn)
  7, 9, -7, 5331, 2.7, -4, -3
c1ccc(-n2cccc2CNC2CCCCC2)cc1
  -8, 5, x, x, 2.2, 6, 15
CN(Cc1ccccc1)C(=O)Cn1c(=O)oc2cc(S(=O)(=O)NCc3ccccc3)ccc21
  10, 7, -8, 5973, 2.7, 11, 5
Cc1ccc(N=Nc2c(O)[nH]c(=O)[nH]c2=O)cc1S(=O)(=O)Nc1ccc(Br)cc1
  1, x, 5, 3860, -2.0, 3, 5
O=C(O)c1ccc(N=NNc2cccc([N+](=O)[O-])c2)cc1
  -6, -7, -53, 2003, 3.1, 2, 9

Continued:
Every second line gives: Sa ugtP lethal, BJeLR viability, PrP UTR inh, Bead autofluor, Sa RN4220 lethal, Mtb hypoxia rep, Mtb hypoxia rep growth
CCOc1ccc2nc(SCC(=O)Nc3ccc4c(c3)OCO4)sc2c1
  21, -2, -4, 2078, -7.2, 10, -2
CC1Cc2cc(-c3csc(N)n3)ccc2O1 (stereo not drawn)
  3, -13, -57, 3888, 4.3, 14, 17
COc1ccc(Cn2c(=O)[nH]c3cc(C(=O)NCc4ccc5c(c4)OCO5)ccc3c2=O)cc1
  28, 9, -2, 4465, -7.5, 14, 0
Cc1ccc(OCC(COCc2ccccc2)NC(C)C)cc1 (stereo not drawn)
  4, -10, -14, 6186, 4.3, 13, 4
CCOC(=O)C1=C(CCc2ccccc2)NC(=O)NC1c1ccc2ccccc2c1 (stereo not drawn)
  17, -8, -6, 3816, 6.6, 6, 6
Cc1ccc(NC(=O)COC(=O)c2ccco2)cc1
  7, 5, -23, 2643, 9.5, 6, 0
CCN(CC(=O)Nc1c(F)cccc1F)C(=O)c1cccc(S(=O)(=O)N2CCc3ccccc3C2)c1
  7, 4, -15, u, 3.3, -3, 0
Oc1ccc(-c2csc(Nc3ccccn3)n2)cc1O
  -30, 10, -54, x, 12, 6, -1
O=C(NCC1CCCO1)c1cnn2c1NC(c1ccccc1)CC2C(F)(F)F (stereo not drawn)
  5, -1, -40, 4353, 7.4, 6, 5
CC(C)Sc1ncnc2c1cnn2-c1ccccc1
  40, -5, -73, 3525, 3.3, 6, 11
CC(=O)O[C@H]1CC(=O)OC(C)(C)C2CC(=O)[C@]3(C)C(CC[C@@](C)([C@@H](O[C@@H]4O[C@H](CO)[C@@H](O)[C@H](O)[C@H]4O)c4ccoc4)[C@@]34O[C@@H]4C(=O)O)[C@]21C (stereo partly drawn)
  -1, x, -26, 5586, 3.1, x, x
Cc1cc(C(=O)Nc2ccccc2N2CCOCC2)no1
  2, x, -19, 3876, 4.2, 10, 7
COc1ccc(NC(=O)CSc2ccc3nnc(-c4cccnc4)n3n2)c(OC)c1
  3, -1, -20, 3631, -0.8, 10, -11
O=S(=O)(c1ccc(-c2csc(-c3cccnc3)n2)cc1)N1CCCC1
  -8, 0, -18, 9290, 5.6, 1, 10
CCOc1ccc(-c2nc(S(=O)(=O)c3ccccc3)c(NC)o2)cc1
  2, 1, -9, 5222, 1.2, 1, 0

Another view of part of the listing above.
Structure,Sa ugtP lethal,BJeLR viability,PrP UTR inh,Bead autofluor,Sa RN4220 lethal,Mtb hypoxia rep,Mtb hypoxia rep growth
Cc1ccc(NC(=O)COC(=O)c2ccco2)cc1,7,5,-23,2643,9.5,6,0
CCN(CC(=O)Nc1c(F)cccc1F)C(=O)c1cccc(S(=O)(=O)N2CCc3ccccc3C2)c1,7,4,-15,u,3.3,-3,0
Oc1ccc(-c2csc(Nc3ccccn3)n2)cc1O,-30,10,-54,x,12,6,-1
O=C(NCC1CCCO1)c1cnn2c1NC(c1ccccc1)CC2C(F)(F)F (stereo not drawn),5,-1,-40,4353,7.4,6,5
CC(C)Sc1ncnc2c1cnn2-c1ccccc1,40,-5,-73,3525,3.3,6,11
CC(=O)O[C@H]1CC(=O)OC(C)(C)C2CC(=O)[C@]3(C)C(CC[C@@](C)([C@@H](O[C@@H]4O[C@H](CO)[C@@H](O)[C@H](O)[C@H]4O)c4ccoc4)[C@@]34O[C@@H]4C(=O)O)[C@]21C (stereo partly drawn),-1,x,-26,5586,3.1,x,x
Cc1cc(C(=O)Nc2ccccc2N2CCOCC2)no1,2,x,-19,3876,4.2,10,7
COc1ccc(NC(=O)CSc2ccc3nnc(-c4cccnc4)n3n2)c(OC)c1,3,-1,-20,3631,-0.8,10,-11
O=S(=O)(c1ccc(-c2csc(-c3cccnc3)n2)cc1)N1CCCC1,-8,0,-18,9290,5.6,1,10
CCOc1ccc(-c2nc(S(=O)(=O)c3ccccc3)c(NC)o2)cc1,2,1,-9,5222,1.2,1,0
